High-throughput results as filed in PubChem.
Autofluor counter – counter-screen for toxin protease inhibitors: compound fluorescence | compound autofluorescence counterscreen, microsphere flow cytometry; hits give high values | fluorescence intensity (no concentration beside the values) | actives 3.1% (n = 360,000) | AID 624483;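 active = at least 3 SD above the mean of all compounds, about 16000 in these data; inconclusive = too few beads counted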;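 also: 100 nL of 1 mM stock went into each well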
ugtP null kill – kills S. aureus RN4220 lacking UgtP. S. aureus RN4220 ugtP deletion, OD600 growth, 16 h; some inactives read as strong as hits. growth inhibition, % (concentration not given with the values). actives 0.54% (n = 330,000);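 active = z-score under -3 and OD600 up to 0.15 on both plates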;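 also: plate controls were untreated wells for no effect and antibiotic for full effect; wells of about 80 µL received 100 nL stock; the first replicate is given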
PrP 5UTR inh – suppresses PrP 5' UTR mRNA reporter expression | actives 0.35% (n = 340,000) | inhibition, % (no concentration beside the values) | cell-based PrP 5' UTR mRNA reporter, plate reader;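 active = every replicate at 50% or more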;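 also: 0 = median of the neutral control wells; tested in H4 reporter cells; numbers are from one replicate; inactives centre near -14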
Sa RN4220 lethal – kills Staphylococcus aureus RN4220 | actives 0.33% (n = 330,000) | inhibition, % (no concentration beside the values) | S. aureus RN4220 growth, OD600, 16 h;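 active = z-score of -3 or lower and OD600 up to 0.18 on both plates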;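 also: plate controls were untreated cells for no effect and reference antibiotic for full effect; stock transfer was 100 nL into about 80 µL; one replicate is shown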
BJeLR lethal – kills HRASV12-expressing BJeLR cells. inhibition, % (no concentration beside the values). BJeLR (HRASV12) viability, CellTiter-Glo ATP luminescence, 48 h; reference of the scale not given here. AID 1554. actives 0.17% (n = 300,000);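 active = replicate mean above 50%; inconclusive = above 50% but judged a plate artefact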;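 also: 50 nL library stock added to about 25 µL; numbers are from one replicate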
Mtb hypoxia inh – reduces hypoxia-regulated biosensor signal in M. tuberculosis; M. tuberculosis hypoxia-regulated fluorescent reporter, fluorescence; fluorescence inhibition, % (no concentration beside the values); AID 1159583; actives 0.1% (n = 300,000);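 active = 35 to 45% if threefold the growth effect, above 45% if 1.5-fold the growth effect; inactive = the rest, general growth blockers included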;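 also: wells of about 50 µL received 100 nL stock; 0% = vehicle wells and 100% = reference inhibitor wells; whole bacteria with a GFP reporter of the hypoxia response; strong numbers were not always called active; many hits fall short of the cut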
Mtb hypoxia inh growth – also measured in Mtb hypoxia inh; calls as there; growth inhibition, %; measured here: M. tuberculosis growth (absorbance);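 0% = vehicle and 100% = reference antibiotic; read after six days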
An asterisk follows results filed as active; ? = inconclusive; nt = no result given.

SMILES	Autofluor counter	ugtP null kill	PrP 5UTR inh	Sa RN4220 lethal	BJeLR lethal	Mtb hypoxia inh	Mtb hypoxia inh growth
CC(=O)c1sc(NC(=O)c2cccs2)nc1C	4036	16	-27	6.5	11	8	13
CCN(CC)S(=O)(=O)c1ccc(N2CCCCC2)c(NC(=O)/C(C#N)=C/c2ccc(OC)cc2)c1	2345	-14	-7	5.3	11	0	2
CCOc1ccc(Nc2nc(Cc3nnc(SCC(=O)NC4CCCC4)n3C)cs2)cc1	10207	14	-32	1.7	-3	-1	2
NS(=O)(=O)c1ccc(N2N=C(c3ccccc3)CC2c2ccccc2Br)cc1 (configuration not stated)	3946	-10	-11	-10	nt	-6	5
Cc1ccc(C(=O)Nc2nnc(S(=O)(=O)Nc3ccccc3C)s2)cc1C	4290	19	-1	20	-5	0	3
CC[C@]1(C(=O)OC)[C@H]2C(=O)N(C)C(=O)[C@H]2[C@H]2CN=C(SCc3ccc(OC)cc3)N21	3019	9	10	5.7	nt	-2	-4
Cc1ccc(S(=O)(=O)c2nnn3c2nc(N2CCOCC2)c2ccccc23)c(C)c1	3580	3	4	5.9	-2	3	-9
CCN(CC)CCC=C(c1cccs1)c1cccs1	3902	-7	2	-0.1	nt	nt	nt
CC(C)=NNc1nc(-c2ccccc2)c(C)s1	2221	4	-10	4.6	0	-4	4
CCC(C)NC(=O)CSc1ncnc2sccc12 (configuration not stated)	4558	6	-84	1.8	6	-1	8
COc1ccc(/C=N/c2oc(-c3ccccc3)cc2C#N)cc1	2135	nt	51	nt	3	nt	nt
COc1ccc(OC)c(CNC(=O)C2CCC(=O)N2C(C)C)c1 (configuration not stated)	4241	0	-20	-0.1	-1	2	-5
O=C(COC(=O)c1c2c(nc3ccccc13)CCCCC2)c1ccc(Cl)s1	2037	-23	-25	-3.6	5	5	-1
Cc1cccc(C)c1NC(=O)C1CCCNC1 (configuration not stated)	8870	3	-32	3.9	7	4	12
Cc1cc(C)n2nc(SCC(=O)N3CC(C)CC(C)C3)nc2n1 (configuration not stated)	4021	2	-17	2.8	nt	-1	5
Cc1cccc(C(C#N)c2ccc(Cl)nn2)c1 (configuration not stated)	4563	1	-8	2.2	4	10	7
CC(C)OCCCn1c(=O)c2ccccc2n2c(CCC(=O)NC3CCN(Cc4ccccc4)CC3)nnc12	6612	5	0	-0.5	-7	5	-3
COc1ccccc1CN1CCN(C(c2ccccc2)c2ccccc2)CC1	3243	20	-3	-0.7	8	-7	7
Cc1nnc(NC(=O)C(C)Sc2nnc(-c3ccco3)n2C)s1 (configuration not stated)	3920	11	-32	2.7	8	9	-5
CC(=O)NCCNC(=O)CNC(=O)c1ccc(Cl)cc1	2035	7	-8	2.8	10	1	1

Reprinted from the part before: 6 compounds, then new ones.
SMILES	Autofluor counter	ugtP null kill	PrP 5UTR inh	Sa RN4220 lethal	BJeLR lethal	Mtb hypoxia inh	Mtb hypoxia inh growth
Cc1cc(C)n2nc(SCC(=O)N3CC(C)CC(C)C3)nc2n1 (configuration not stated)	4021	2	-17	2.8	nt	-1	5
Cc1cccc(C(C#N)c2ccc(Cl)nn2)c1 (configuration not stated)	4563	1	-8	2.2	4	10	7
CC(C)OCCCn1c(=O)c2ccccc2n2c(CCC(=O)NC3CCN(Cc4ccccc4)CC3)nnc12	6612	5	0	-0.5	-7	5	-3
COc1ccccc1CN1CCN(C(c2ccccc2)c2ccccc2)CC1	3243	20	-3	-0.7	8	-7	7
Cc1nnc(NC(=O)C(C)Sc2nnc(-c3ccco3)n2C)s1 (configuration not stated)	3920	11	-32	2.7	8	9	-5
CC(=O)NCCNC(=O)CNC(=O)c1ccc(Cl)cc1	2035	7	-8	2.8	10	1	1
CN(C(=O)c1ccncc1)c1nnc(-c2cnccn2)s1	3418	-4	-2	-6.9	3	nt	nt
Cc1c(NC(=O)Nc2cccc(C#N)c2)c(=O)n(-c2ccccc2)n1C	3782	3	-20	0.5	4	6	5
O=C(OCC(=O)N1CCN(Cc2ccccc2)CC1)c1ccc(Cl)cc1	2047	4	-25	5.0	5	11	5
COc1cccc(-c2cc(C(=O)Nc3ccc(OC)c(OC)c3)no2)c1	19835*	-12	-17	-0.1	-7	3	7
O=C(CSC1=NS(=O)(=O)c2ccccc2N1)Nc1ccc(F)cc1	?	6	-8	0.4	6	-4	6
COC(=O)c1cccc(C(=O)Nc2cnc3ccccc3c2)n1	2767	-14	-5	5.1	nt	nt	nt
CC1(C)CN=C(NC2CCCCC2)S1	8777	7	-18	1.7	-1	-3	-4
Nc1ccc2c(c1)Cc1ccccc1-2	2161	6	-41	3.4	11	2	0
CONc1nc2nonc2nc1NOC	2631	4	-12	1.8	-7	-4	-5
Cc1ccsc1CN(C)CC(=O)Nc1ccc([N+](=O)[O-])cc1Cl	2967	-10	-4	7.3	1	4	2
CC1C(=O)N(c2ccc(S(=O)(=O)N(C)C)cc2)C1(/C=C/c1ccccc1)C(=O)NC1CCCC1 (configuration not stated)	2174	27	-59	11	-12	-6	8
O=C1CC(c2cccnc2)c2cc3c(cc2N1)OCCO3 (configuration not stated)	4350	7	4	-1.0	11	3	4
COc1ccccc1NC(=O)CCSc1nnc(-c2ccncc2)o1	3774	5	-1	7.4	0	15	4
COc1ccc(C(=O)Nc2ccc(NC(=O)c3cccs3)cc2)cc1[N+](=O)[O-]	2005	-10	-18	-1.7	4	0	3
COc1ccc(/C=N/NC(=O)c2ccc3c(c2)NC(=O)C(C)(C)O3)cc1OC	3939	nt	-18	nt	-2	nt	nt
CCS(=O)(=O)c1nc(S(=O)(=O)c2ccc(C)cc2)c(NCc2ccccn2)s1	4483	9	-22	5.6	3	-8	1
COc1ccc(Cl)cc1NC(=O)Cn1nc(-c2ccc(C)cc2)n(C)c1=S	9135	-1	-21	3.8	-4	7	3
CC(C)N(Cc1ccccc1)C(=O)CN1C(=O)NC2(CCOc3ccccc32)C1=O (configuration not stated)	2965	-2	-16	2.3	nt	1	-1
Cc1cccc(C)c1NC(=O)CSc1ncnc2nc[nH]c12	11110	-2	-12	4.7	-8	9	3
O=C(Nc1cccnc1)c1cccc(F)c1	2473	-1	6	3.2	1	3	1
Cc1ccc(/C=C/C(=O)NCc2cccs2)o1	3993	6	-17	5.6	1	nt	nt
COc1cccc(C2CC(c3cccs3)=NN2C(=O)CCC(=O)O)c1OC (configuration not stated)	6122	10	-15	3.0	-1	-6	-3
O=c1[nH]c2ccccc2c(=O)n1-c1cccc(Cl)c1	3713	10	1	4.5	2	nt	nt
O=C(Cc1cn2ccsc2n1)NCc1ccccc1	11810	-2	-8	2.0	-11	5	4
CC(=O)Nc1ccc(OCC(O)Cn2cncn2)cc1 (configuration not stated)	3198	0	-3	-0.5	11	8	4
CC1CN(C(C)CO)C(=O)c2cccc(NC(=O)C3CC3)c2OC1CN(C)Cc1ccc(C(F)(F)F)cc1 (configuration not stated)	nt	16	nt	8.2	nt	3	6
COc1cccc(CN2CCC(C(=O)N3CCN(c4ccccc4F)CC3)CC2)c1OC	2081	3	-7	3.3	0	12	2
COCCOc1ccc(C(F)(F)F)cc1NC(=O)CN1C(=O)NC2(CCCc3ccccc32)C1=O (configuration not stated)	4518	-7	-20	-7.3	nt	-3	6
COc1ccc(C2C(C(=O)/C=C/c3ccco3)=C(O)C(=O)N2CCN2CCOCC2)cc1 (configuration not stated)	4024	5	-42	1.8	12	11	8
COc1ccc(NC(=O)c2cc(Cl)ccc2Cl)c([N+](=O)[O-])c1	2103	3	-21	3.2	2	9	10
CC1=CC(C)(C)n2c(O)c(N=N)c3c(C)ccc1c32	5009	14	-13	-5.1	18	7	7
O=[N+]([O-])c1cc(C(F)(F)F)ccc1Sc1nccn1Cc1ccccc1	3157	-2	-19	-3.7	-6	nt	nt
Cc1c(CCN)ccc2c1[nH]c1ccccc12	3061	nt	4	nt	-1	nt	nt
COC(=O)c1oc2ccc(Cl)cc2c1N	4082	-2	-15	9.0	3	5	7
O=C(C=C1NCCN1)c1ccccc1	nt	4	nt	4.2	-3	6	4
CCN(C(=O)c1ccc(S(C)(=O)=O)cc1)C12CC3CC(CC(C3)C1)C2	2301	-2	-4	-2.3	8	-6	-2
O=C(/C=C\c1ccc(-c2cccc([N+](=O)[O-])c2)o1)N1CCOCC1	4179	-2	-30	1.0	-8	0	20
COc1cc(OC)nc(Oc2ccccc2C=NO)n1	nt	0	nt	2.0	nt	0	3
CCOC(=O)C1CCN(Cc2cnc(Oc3ccc(N)cc3)s2)CC1	21292*	7	0	1.9	-4	9	-1
COc1ccc(F)cc1C(=O)C1CCCN(Cc2cccn2-c2ccccn2)C1 (configuration not stated)	2107	2	-12	0.3	nt	15	13
COc1ccc(NC(=O)CCSc2ccc(C)cc2)cc1	1996	15	-2	-0.2	6	6	-2
CCCCC(=O)Nc1nnc(SCC(=O)Nc2ccc(OC)cc2)s1	6096	5	-32	-0.9	-1	9	7
COc1ccc(S(=O)(=O)N(CC(=O)NCCC(C)C)c2ccccc2)cc1OC	2646	-1	-12	2.3	-4	0	-2
Cc1ccc(S(=O)(=O)Nc2cccc3cccnc23)cc1	3610	nt	-7	nt	2	nt	nt
CN1CCN(C(CNS(=O)(=O)c2ccc(F)cc2)c2cccnc2)CC1 (configuration not stated)	4663	4	-22	3.7	8	4	11
O=C(Cn1[nH]c(=O)c2ccccc2c1=O)NC1CCCCCC1	2395	1	0	1.2	5	nt	nt
COC(=O)C1CCCN1C(=O)COc1ccc(Cl)cc1Br (configuration not stated)	2000	13	-8	4.9	-4	13	10
O=C(Nc1ccccc1)NC1CCCCC1	3222	2	-43	5.1	4	9	9
Cc1cccc2cc(COC(=O)c3ccccn3)c(=O)[nH]c12	3385	1	-24	5.3	-7	3	4
O=C(CSc1nncs1)Nc1ccc2c(c1)OCCO2	3717	5	-51	4.1	-11	nt	nt
O=[N+]([O-])c1ccc2[nH]c3nc4ccccc4nc3c2c1	3705	nt	-12	nt	0	nt	nt
O=C(CSc1nnc(-c2cnccn2)n1Cc1ccco1)c1ccc(Cl)c(Cl)c1	9953	-42	-30	-5.0	1	-3	-6
Cc1c(C(=O)NCCSCc2cccc(C(F)(F)F)c2)cnn1-c1ccc(F)cc1	3659	3	-18	-8.5	-1	12	0
Cc1ccc(N2C(=O)NC(=O)/C(=C\c3ccsc3)C2=O)cc1C	nt	-3	nt	2.4	-17	7	4
COc1ccc2cc3cc(C(=O)N4CCCCC4C)oc3nc2c1 (configuration not stated)	4159	-2	-63	2.6	9	1	12
COc1ccc(NC(=O)Oc2cc(C)ccc2C(C)C)cc1	4169	4	-29	-0.8	10	13	-1
Cc1cc(/C=N/n2cnnc2)c(C)n1-c1cccc(C(=O)O)c1	?	nt	-12	nt	-3	nt	nt
Cc1ccccc1-n1c(O)c(/C=N/N2CCOCC2)c(=O)[nH]c1=S	2451	13	3	7.4	-22	-8	0
CC1CN(S(=O)(=O)c2ccc(C(=O)Nc3nncs3)cc2)CC(C)O1 (configuration not stated)	8386	7	-14	7.8	nt	2	5
CCN1C(=O)/C(=C2/C=Cc3cc(C)ccc3N2CC)N(C)C1=S	9838	nt	-11	nt	20	nt	nt
The results go on.
SMILES	Autofluor counter	ugtP null kill	PrP 5UTR inh	Sa RN4220 lethal	BJeLR lethal	Mtb hypoxia inh	Mtb hypoxia inh growth
CC(NC(=O)CCNC(=O)c1ccccc1Cl)C1CC2CCC1C2 (configuration not stated)	2671	8	3	3.7	2	8	13
CCOC(=O)CC1(NC(=O)c2cc(COc3ccc(F)c(F)c3)on2)CCCCC1	4582	4	-11	3.2	8	6	1
CC(=NNC(=S)NCC(C)(C)C)c1cc(F)cc(F)c1O	nt	-7	nt	2.8	nt	0	-9
O=[N+]([O-])c1ccc(Cc2nnc(-c3ccccc3Cl)o2)cc1	4832	11	-91	4.4	0	18	17
O=C(NCCSCc1c(F)cccc1Cl)c1ccco1	nt	-4	-22	1.1	-4	nt	nt
CC(C)C[C@H](NC(=O)N1CCn2c1nc1ccccc12)C(=O)NCc1ccccc1	4424	14	16	9.4	3	-1	4
Cc1noc(C)c1CSc1ccccc1C(=O)Nc1nccs1	4477	-2	20	0.5	5	nt	nt
O=C(Nc1ccc(Cl)cc1C(=O)NCc1cccnc1)c1ccco1	23145*	-1	-8	3.0	-7	0	1
O=C(c1cnccn1)N1CCc2ccccc21	6082	-4	-15	6.6	2	13	3
